Bioassay records deposited in PubChem BioAssay by National Center for Advancing Translational Sciences (NCATS).
2A Renilla: FMDV 2A StopGo reporter, Renilla signal; HEK cells with a luciferase reporter of 2A StopGo recoding; Potency, µM (series often up to 57.5 µM), for inactives: at the top dose signal change, negative = less light; actives 0.32% (n = 120,000); AID 1745857; active means well fitted falling curve with a large enough effect; inconclusive means small, poorly fitted or top-dose-only effect; inactive means no such curve, though single readings can be large or run the other way; further: nearly all actives have a fitted effect of over 55% in size; overnight with compound
StopGo FLuc: FMDV 2A StopGo reporter, firefly signal | Potency, µM (top dose mostly 57.5 µM), without a hit: top-dose signal change, negative = less light | actives 0.23% (n = 120,000) | AID 1745856 | HEK cells with a luciferase reporter of 2A StopGo recoding; active = well fitted falling curve with a large enough effect; inconclusive = small, poorly fitted or top-dose-only effect; inactive = no such curve, though single readings can be large or run the other way; further: nearly all actives have a fitted effect of over 60% in size; overnight with compound
* = called active by the depositor; ? = inconclusive; [ ] = dose if it differs, or a comment. On the % scale 0 is the no-effect control and ±100 the full control effect; potency means the concentration at half of the fitted maximal effect.

canonical_smiles	2A Renilla	StopGo FLuc
OCCN1CCN(C(c2ccccc2Cl)c2sc3nc(-c4ccco4)nn3c2O)CC1 (stereo not given)	-5.7%	0.9%
Cc1ccc(S(=O)Cc2nc(-c3ccc(C(=O)NCc4cccnc4)cc3)oc2C)cc1 (stereo not given)	?	?
Brc1ccc(-c2cn3c4ccccc4nc3n2CCCN2CCCC2)cc1	-24.4%	-5.4%
CCN(C(=O)c1cccs1)c1nc(-c2ccccc2)cs1	41.9%	111.5%[activator]
CCC(=O)OC1=C(C(C)=O)N(Cc2ccccc2)S(=O)(=O)c2ccccc21	6.8%	6.7%
O=C(O)CCCOc1ccc2c(c1)CCC(=O)N2	-7.0%	11.5%
CN(Cc1cccs1)C(=O)c1cc(-c2ccncc2)nc2ccccc12	106.7%[activator]	19.0%
O=Cc1cn[nH]c1-c1cc2ccccc2o1	-13.1%	95.5%[activator]
COc1ccccc1CNC(=O)Cn1c(=O)c2c(ncn2C)n(C)c1=O	1.5%	6.3%
O=C(Nc1nc(-c2ccc(Cl)cc2)cs1)c1ccc(CN2CCOCC2)cc1	?	14.1µM*
Cc1[nH]c(=O)[nH]c(=O)c1CCC(=O)Nc1nc(C2CC2)cs1	-3.1%	49.7%[activator]
Cc1ccc(C)c(NC(=O)CSc2nccn2-c2cccc(C)c2C)c1	4.7%	6.6%
COc1ccc(CNC(=O)c2oc3c(c2C)-c2nn(Cc4ccc(Cl)cc4)cc2CC3)cc1	?	?
CCCCN(C)S(=O)(=O)NCc1ccnc(N2CCN(c3ccc(F)cc3)CC2)c1	?	?
O=C(CCc1cc(Cl)no1)N(CCS(=O)(=O)N1CCCCC1)Cc1cccnc1	2.6%	-2.5%
C=CCC1(C(C)CC)C(=O)NC(=O)NC1=O (stereo not given)	-4.7%	17.1%[11.5 µM]
Cc1ccc2nc(NC(=O)c3ccc(S(=O)(=O)N4CCCc5ccccc54)cc3)sc2c1	-2.2%	-3.0%
CCc1ccc(OCc2nnc(SCc3ccc(C(C)(C)C)cc3)n2CC(C)C)cc1	-14.7%[1.06 µM]	-1.9%
CCC(C(=O)Nc1cc(-c2cn3cccnc3n2)ccc1C)c1ccccc1 (stereo not given)	-8.8%	-10.2%
COC(=O)CC(NC(=O)c1cccc(CS(C)(=O)=O)c1)c1ccc(C)cc1 (stereo not given)	-5.0%	-7.7%
CCOC(=O)c1c(NC(=O)COc2cccc(C)c2C)sc2c1CCCCC2	-14.3%	-14.4%
Cc1c(-c2ccccc2)c(=O)oc2cc(OS(C)(=O)=O)ccc12	?	95.1%[activator]
Clc1ccc(Nc2nc(NC3CCCC3)nc3c2cnn3-c2ccccc2)cc1	-1.7%	-8.0%
O=C(COc1ccccc1)Nc1cccc2ncccc12	?	?
CC(C)=CC1C(C(=O)N(C)CC(=O)NC(C)(C)C)C1(C)C (stereo not given)	-4.3%	9.0%
CC(C)c1ccc(Nc2ncnc3c2c(-c2ccccc2)cn3-c2ccccc2)cc1	-3.6%	-9.9%
Cn1cc(C(=O)NCc2ccc(Cl)cc2)c(=O)c2cc(S(=O)(=O)N3CCCCCC3)ccc21	-2.9%	-4.3%
Cc1cc(OCC(=O)NCCCN(C)C)c2c(C)c(C)c(=O)oc2c1	-10.1%	-1.4%
O=C(NCc1ccc(F)cc1)C1CCCN(C(=O)c2cccc(C(F)(F)F)c2)C1 (stereo not given)	?	?
CC(=O)c1ccc(NC(=O)CCOc2ccccc2)cc1	-9.9%	159.3%[activator]
CCc1cccc(C)c1NC(=O)c1cn2c3c(ccc(Cl)c3c1=O)OC(C)C2 (stereo not given)	-13.6%	0.8%
C[N+](C)(C)CCCC#CC#CCCC[N+](C)(C)C	-3.2%	-4.4%
CCN1CCN(c2c([N+](=O)[O-])cnc3ccc(Br)cc23)CC1	-15.4%	-10.7%
Cc1ccc(-n2c3c(cc(C(=O)Nc4cccc(Cl)c4)c2=O)C(=O)CC(C)(C)C3)cc1	17.1%	6.0%
CCN(CC)c1cc2c(cc1F)c(=O)c(S(=O)(=O)c1ccccc1)cn2Cc1ccccc1	14.4%	-10.5%
CCOc1ccc(-c2[nH]nc3c2C(c2cc(OC)c(OC)cc2OC)C(C#N)=C(N)O3)cc1OC (stereo not given)	-1.1%	7.4%
CC(Sc1ncnc2nc[nH]c12)C(=O)Nc1cccc2ccccc12 (stereo not given)	7.8%	14.9%
CCOC(=O)OCC/C(SC(=O)OCC)=C(\C)N(C=O)Cc1cnc(C)nc1N	-6.2%	-10.6%
CCOc1ccc(NC(=O)N2CC3CCCN3c3ccccc32)cc1 (stereo not given)	-14.7%	-5.1%
C[C@H](CCC(=O)O)[C@H]1CC[C@H]2[C@@H]3C(=O)C[C@@H]4CC(=O)CC[C@]4(C)[C@H]3CC(=O)[C@]12C	-16.9%	-23.6%
CSc1ccc(CCNC(=O)c2sc3ncccc3c2-n2cccc2)cc1	?	?
CCC(=O)NCC(c1ccsc1)N(C)C (stereo not given)	10.9%	32.0%[activator]
CCOCCCNc1oc(/C=C/c2cc(OC)c(OC)c(OC)c2)nc1C#N	86.5%[activator]	0.0%
Cc1ccc(CNC(=O)Cn2cccc2C(=O)c2ccccc2C)cc1	7.8%	11.8%
COc1cccc(Nc2nc3ccccc3c3nncn23)c1	-9.6%	3.4%
CCN(C(=O)C(=O)c1c[nH]c2ccccc12)c1ccccc1	144.9%[activator]	11.1%
Nc1nc(NCc2ccccc2)sc1C(=O)c1ccc(Cl)cc1	-5.4%	0.0%
COc1ccc(C2=NS(=O)(=O)N(C)C(C(=O)Nc3ccn(Cc4ccccc4C)n3)=C2)cc1	0.0%	-17.3%
CC(NO)C(C)(C)NO (stereo not given)	16.8%	0.0%
COC(=O)CN1C(=O)C(C)(C)c2cc(S(=O)(=O)Nc3ccc(C(C)C)cc3)ccc21	-4.0%	-8.0%

Copied from the list:
2A Renilla, COc1cccc(Nc2nc3ccccc3c3nncn23)c1 = -9.6%
StopGo FLuc, CCC(=O)NCC(c1ccsc1)N(C)C (stereo not given) = 32.0%[activator]

Following part:
canonical_smiles	2A Renilla	StopGo FLuc
Cc1ccc(NC(=O)CN2C(=O)c3ccccc3Sc3ncccc32)c(C)c1	-7.4%	-8.8%
CCc1cccc(NC(=O)CC2(C(=O)O)CCCCC2)c1	6.6%	0.6%
Cc1nn(CN2CCN(Cc3ccccc3)CC2)c(=O)c2ccccc12	-6.3%	2.5%
CCOC(=O)c1ccc(NC(=O)C2Cc3ccccc3CN2S(=O)(=O)c2ccc(Cl)cc2)cc1 (stereo not given)	38.0%[activator]	6.0%
C=C(C)Cn1c(N2CCN(CC(=O)OCC)CC2)nc2c1c(=O)[nH]c(=O)n2C	6.2%	3.2%
CCOC(=O)C(NC(=O)c1ccc(C)cc1)C(=O)OCC	4.8%	0.0%
COc1ccccc1-c1cc2nc(C)c(CCC(=O)Nc3cc(C)ccc3C)c(C)n2n1	-13.2%	35.5µM*
COc1ccc(-n2c3c(c(=O)[nH]c2=O)CN(C2CCCC2)CN3)cc1Cl	-8.1%	1.4%
COc1ccc(NS(=O)(=O)c2cccc(C(=O)Nc3ccc4oc(C)nc4c3)c2)cc1	-8.6%	?
N#Cc1ncn(CC(=O)Nc2ccc(Br)cc2Cl)n1	10.0%	-5.7%
COc1ccc(-n2nc(C)c3c2NC(=O)CC3c2ccc(OC)c(OC)c2)nn1 (stereo not given)	11.8%	31.3%[activator]
COc1ccc(NC(=O)CSc2nccn2Cc2ccc3c(c2)OCO3)cc1	0.4%	-11.4%
COc1ccc(S(=O)(=O)Nc2c(C)nc3nc(C)[nH]n3c2=O)cc1	35.6%[activator]	-5.6%
COc1cccc(-n2c(SCc3cccc(C)c3)nc3c([nH]c4ccccc43)c2=O)c1	-2.1%	-0.1%
COc1cccc(NCc2cccn2-c2nnc(N3CCC(C)CC3)s2)c1	-8.7%	-39.6%
Cc1ccc(Cl)cc1N1CCN(CC(=O)NC2CCS(=O)(=O)C2)CC1 (stereo not given)	-13.8%	-7.8%
O=C(NS(=O)(=O)NC(=O)c1ccccc1)c1ccccc1	0.0%	-7.2%
COc1cc(NC(=O)C2Cc3ccccc3N2C(=O)c2ccccc2)cc(OC)c1 (stereo not given)	-6.1%	-25.9%
CC(C)OCCCNC(=O)CN1C(=O)CSc2ccc(S(=O)(=O)N3CCOCC3)cc21	1.2%	-8.6%
Cc1ccc2c(c1)N(CC(=O)NCCc1ccc(Cl)cc1)C(=O)c1cccnc1O2	-13.9%	0.0%
Cc1c(Cl)cccc1Nc1nn2c(=O)c3ccc(C(=O)N(C)Cc4ccccc4)cc3nc2s1	63.4%[activator]	82.7%[activator]
COCC(C)N(C)C(=O)c1ccc2c(c1)NC(=O)CS2 (stereo not given)	-0.1%	-2.4%
OC(Cn1cncn1)(Cn1cncn1)c1ccc(F)cc1F	-4.3%	-17.7%[11.5 µM]
C=CCNC(=O)C/C(C)=N/NC(=O)C(C)C	5.6%	28.7%
Cc1cc(C)c2oc(C(=O)Nc3ccc(OC(F)F)cc3)cc(=O)c2c1	-1.9%	1.4%
COc1ccc(Cn2nc3n(c2=O)-c2ccccc2OC3)cc1	26.6%	162.1%[activator]
O=C(COC(=O)c1c[nH]c2ccccc12)Nc1ccc(N2CCOCC2)cc1	7.8%	15.2%
COC(=O)c1ccc(OCC2c3cc(OC)c(OC)cc3CCN2C(=O)c2ccc(OC)cc2)cc1 (stereo not given)	9.2%	-3.5%
CC1CCCC(NC(=O)c2ccc3ccccc3c2)C1C (stereo not given)	71.4%[activator]	65.7%[activator]
COc1ccc(C2=NOC(Cc3cc(OC)c4c(c3OC)OCO4)C2)cc1 (stereo not given)	?	?
COc1ccc(Cl)cc1C(=O)Nc1ccc(-c2nnc3n2CCCCC3)cc1	62.3%[activator]	46.4%[activator]
O=C(Nc1ccccc1C(=O)NCC12CC3CC(CC(C3)C1)C2)c1ccccc1	-13.9%[1.06 µM]	2.9%
CCN1CCN(Cc2cc(=O)oc3cc(C)c(Cl)cc23)CC1	-23.9%	-22.2%
Cc1cc2oc(C(=O)Nc3cccc(C(F)(F)F)c3)cc(=O)c2cc1C	-17.4%	-21.3%
COc1cc(OC)c(OC)cc1/C=C/c1nc2cc3ccccc3cc2c(=O)n1-c1ccc(Cl)cc1	-1.0%	31.2%[activator]
Cn1c(CN2CCCCC2)nc2cc(NC(=O)COc3ccccc3)ccc21	16.3%	0.0%
COc1ccccc1CNC(=O)N1CCN(Cc2ccc(Br)s2)CC1	-20.5%	-6.4%
CCCCCOc1ccc(Cn2c(=O)oc3ccc(C)cc32)cc1OC	-1.1%	12.7%
CCOc1cc2c(cc1OCC)C(c1c(F)cccc1Cl)CC(=O)N2 (stereo not given)	17.3%	24.2%
COc1cc2c(C(=O)N3CCN(c4ccc(C)cc4)C(C)C3)cn(CC(C)C)c(=O)c2cc1OC (stereo not given)	129.7%[activator]	-13.0%
N#CC1(C(=O)NCc2ccccc2)CCCC1	2.8%	14.5%
COc1cccc(-c2nn(C)c3sc(C(=O)N4CCN(c5cccc(C(F)(F)F)c5)CC4)cc23)c1	-19.0%	-19.8%
Cc1cc(C(=O)CSc2nnc(COc3ccccc3Cl)n2C)c(C)n1Cc1cccs1	0.0%	15.0%
CNC(=O)c1ccccc1NCC(=O)Nc1sc2c(c1C#N)CCCCC2	8.6%	20.2%
COCCn1cc(C(=O)NCCc2cccc(Cl)c2Cl)ccc1=O	-8.1%	9.2%
Cc1cccc(NC(=O)CSc2ccc(-c3ccccn3)nn2)c1	?	-13.1%
CCOC(=O)c1c(NC(=O)C(C)Sc2cn(CCNC(=O)c3ccc(OC)c(OC)c3)c3ccccc23)sc2c1CCC2 (stereo not given)	-4.1%	-10.8%
CCN1CCN(C(=O)c2ccc3c(c2)N(Cc2ccccc2)C(=O)c2ccccc2S3(=O)=O)CC1	54.1%[activator]	0.0%
CCC[N+]12CCC(CC1)C(=C(c1ccccc1)c1ccccc1)C2	-23.6%	10.9%
CCCCOc1ccc2c(=O)c(-c3cc(C(=O)OC)oc3C)c(C)oc2c1	-5.3%	0.9%

The listing continues.
canonical_smiles	2A Renilla	StopGo FLuc
Cc1ccc(C)c(CSc2nc3nc[nH]c3c(=O)[nH]2)c1	18.1%	20.8%
CC(C)c1ccc(Nc2cc(C(=O)NCc3cccs3)c3ccccc3n2)cc1	-3.4%	4.2%
COc1cc(NC(=O)Cn2c(=O)n(CC3CCCO3)c(=O)c3ccccc32)cc(OC)c1 (stereo not given)	-7.1%	-25.2%
COc1c(CNC2CCCN(Cc3ccccc3)C2)c(C)nn1C (stereo not given)	-3.5%	-4.0%
Cc1c(C(=O)NCc2nnc3n2CCCCC3)oc2c(F)cccc12	1.2%	12.4%
Cc1ccc2oc(=O)cc(CN3CCN(c4ccccc4)CC3)c2c1	-6.4%	0.0%
CCN(Cc1ccccc1)Cc1c(O)ccc2c(=O)c(-c3ccccc3OC)c(C(F)(F)F)oc12	-10.1%	13.9%
COc1cc(OC)cc(C(=O)Nc2ccc3oc(C)nc3c2)c1	28.9%	261.2%[activator]
CC(c1cccs1)N(C)S(=O)(=O)c1cc(C(=O)O)cs1 (stereo not given)	5.1%	14.5%
Cc1oc(-c2ccc(Cl)cc2)nc1CSc1nc2ccncc2[nH]1	?	?
